Assay outcomes: PubChem, National Center for Advancing Translational Sciences (NCATS)
HSD17B inhib = HSD17B dehydrogenase inhibition. Q99714. recombinant HSD17B10, NADH fluorescence kinetic; many of its hits are not listed in these tables. Potency, µM (titrated, usually from 57.1 µM), for inactives: at the highest dose activity change, negative = inhibition, most hits filed as inhibitors. hit rate 7.6% among 75,000; active = well fitted inhibition curve with a large enough effect; inconclusive = small, poorly fitted or top-dose-only effect; inactive = no such curve, though single readings can be large or run the other way;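 also: the protocol describes HADH2 (HSD17B10) and not the HSD17B4 of the title; nearly all actives have a fitted effect of over 70% in size; most hits overshoot -100% by far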
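20 nM HADH2, pH 9.0 Tris/Tween; cpd preinc 15 min RT; start w/ 1 mM NAD+ + 90 uM b-hydroxybutyryl-CoA; kinetic fluor ex360/em450 q30s x 4 min; delta last-first.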
Starred values were filed as active, the others as inactive; ? = inconclusive; [ ] = another dose, or the depositor's remark. % is scaled to controls: 0 for no effect and ±100 for the full control effect; potency is read from the fitted curve at half-maximal effect.

compound	HSD17B inhib
COc1ccccc1NC(=O)C(O)C(O)C(=O)Nc1ccccc1OC (stereo unspecified)	0%
Cc1cc(NC(=O)Cn2nc(C(F)(F)F)c3c2CCCC3)no1	16%
O=C(CSc1ccc(-c2ccc(F)cc2)nn1)N1CCCCC1	3%
CCOC(=O)Cc1cn2c(=O)cc(CSCC(=O)Nc3ccc(C)c(C)c3)nc2s1	-28%
Cc1cc(N2CCN(c3ccccc3)CC2)n2c(n1)nc1ccccc12	-16%
COC(=O)[C@@]1(Cc2ccc(OC)cc2)[C@H]2c3cc(C(=O)N4CCCC4)n(Cc4ccc(OC)c(OC)c4)c3C[C@H]2CN1C(=O)c1ccccc1	8%
Cc1ccc(NS(=O)(=O)c2cccc(C(=O)O)c2)c(C)c1	5%
CCn1cc(C(=O)OCC(=O)OC2CC(C)CCC2C(C)C)c(=O)c2ccc(C)nc21 (stereo unspecified)	-3%
CS(=O)(=O)N1CCC(C(=O)Nc2ccc(Cl)c(C(F)(F)F)c2)CC1	6%
O=C(CCN1CCN(c2ccc(Cl)cc2)CC1)Nc1ccccc1F	-12%
CC(C)(C#CCN1CCCC1)OCCC#N	9%
COc1ccccc1-c1ccc2ncnc(NCc3ccccc3)c2c1	?
O=C(O)C(Cc1cccs1)C(=O)O	5%[11.4 µM]
COC(=O)[C@@]1(Cc2ccc(OC)cc2)[C@H]2c3cc(C(=O)N4CCCC4)n(CCc4c[nH]c5ccc(O)cc45)c3C[C@H]2CN1C(=O)c1ccccc1	17%
CCC(=O)N1CCc2cc(S(=O)(=O)NCCC(=O)Nc3ccccc3C)ccc21	2%
CCCc1ncc(C(O)c2ccc(OC)cc2)n1C (stereo unspecified)	1%
COCC(=O)NC1CCN(C(=O)NCc2ccccc2)CC1	4%
C/C(=N/NS(=O)(=O)c1ccc(C)cc1)P(=O)(O)O	-4%[11.4 µM]
Cc1c(C(=O)N2CCCC2)oc2c1-c1[nH]ncc1CC2	10%
O=C(NCCc1ccccc1)C1CCN(S(=O)(=O)c2cccnc2)CC1	-2%
O=C(Nc1ccc2c(c1)CCC2)C1CCCO1 (stereo unspecified)	-7%
Cc1ccc(S(=O)(=O)N2C(=O)CCC2C(=O)N2CCN(C)CC2)cc1 (stereo unspecified)	5%
Cc1ccc(S(=O)(=O)N(C)c2nonc2C)cc1	3%
COC(=O)c1cc(OC)c(OC)cc1NC(=O)C1CCCO1 (stereo unspecified)	?
COc1ccc2c(c1OC)CN(C)CCc1cc3c(cc1C(O)C2)OCO3 (stereo unspecified)	-3%
COc1ccc(C(=O)O)c(O)c1OC	-2%
CCN(CCCNC(=O)CNC(=O)Cn1cnc2ccccc2c1=O)c1ccccc1	0%
O=C(Nc1ccc(S(=O)(=O)N2CCOCC2)cc1)c1ccc(Cl)s1	0%
c1ccc2c(c1)OCC(c1nn3cnnc3s1)O2 (stereo unspecified)	-7%
c1ccc(C(c2nnnn2Cc2cccs2)N2CCN(C3CCCC3)CC2)cc1 (stereo unspecified)	3%
CCC(=O)Nc1nc2ccc3nc(C)sc3c2s1	-6%
Cc1nnc(SCC(=O)Nc2ccccc2NC(=O)CSc2nnc(C)s2)s1	6%
Cc1cc(C)cc(Nc2ncc3c(n2)CC(c2ccco2)CC3=O)c1 (stereo unspecified)	-10%
C=CCNC(=O)C1CC(=O)N(c2ccc(OCC(=O)Nc3cccc(OC)c3)cc2)C1 (stereo unspecified)	5%
c1ccc(CNc2nc(-c3ccoc3)nc3ccccc23)cc1	-20%
COCCn1c(SCC(=O)c2cccc(OC)c2)nnc1-c1ccco1	-6%
COc1ccccc1Nc1nc(-c2cccs2)cs1	?
CCN(CC(=O)Nc1ccc2c(c1)OCO2)Cc1nc2ccccc2c(=O)[nH]1	8%
Cc1nc2cccc([N+](=O)[O-])c2n1CCCN(C)C	1%[11.4 µM]
C=CCC(O)CC1C2C(CC(O)CC=C)C3C1C3C2OC(C)(C)C (stereo unspecified)	6%[11.4 µM]
O=C(O)c1cccc(C(=O)Cc2ccccc2)c1	-4%
COCC(=O)Nc1cccc2ccccc12	-17%
Cc1ccc(NC(=O)N2CCC(C(=O)NCc3ccc(F)cc3)CC2)cc1	4%
CCc1c(O)nc(N2CCN(Cc3ccccc3)CC2)[nH]c1=O	7%
O=C(Cn1c(=O)oc2cc(S(=O)(=O)NCc3ccccc3)ccc21)NCc1ccco1	-4%
C=CCc1cccc(CNc2c(C)n(C)n(-c3ccccc3)c2=O)c1O	-2%
O=C(c1cc(C(F)(F)F)cc(C(F)(F)F)c1)N1CCC2(CC1)CN(c1ccccc1)C2	-7%
COc1ccc(-n2c(Cc3cccn3C)nnc2SCC(=O)Nc2nccs2)cc1	-1%
c1c2c(cc3sc(N4CCOCC4)nc13)OCCO2	3%
C=CCNCc1cccn1-c1ccccc1	0%

Remaining list, next part:
compound	HSD17B inhib
Cc1ccc(S(=O)(=O)N(C)CCCC(=O)Nc2ccccn2)cc1	6%
COC(=O)N1CC=CC1(C)C(=O)NCc1ccc(C)o1 (stereo unspecified)	1%
COc1ccc(Cl)cc1N1C(=O)C2CCCN2C1c1cccc(F)c1 (stereo unspecified)	-1%
c1ccc(Cn2nnc3c(NCc4ccc5c(c4)OCO5)nc(C4CC4)nc32)cc1	4%
N#Cc1cccc(-c2nccc(NCc3cccnc3)n2)c1	?
CCCC(c1nnnn1Cc1ccco1)N1CCN(c2cc(Cl)ccc2C)CC1 (stereo unspecified)	-18%
CC1(C)CSC(=S)N1S(=O)(=O)c1ccccc1	3%
CCOc1ccc(C2N(c3cc(Cl)ccc3OC)C(=O)C3CCCN32)cc1OC (stereo unspecified)	4%
CCc1ccccc1NC1=NCC(=O)N1Cc1ccc(OC)cc1	5%
O=C(c1cccnc1Nc1ccc2c(c1)CCC2)N1CCOCC1	5%
CCNS(=O)(=O)c1ccc2nc(NC(=O)c3cccnc3)sc2c1	-7%
CCN(CC)CCNC(=O)CCc1n[nH]c(=O)c2ccccc12	11%
CN(C1CCCCC1)S(=O)(=O)c1ccc(C(=O)O)cc1	7%
COCC(=O)Nc1nc2n(n1)C(c1ccc(Cl)cc1)CC(c1ccc(OC)cc1)N2 (stereo unspecified)	-12%
Cc1ccc2oc(=O)c3cnn(CC(=O)NC4CCC(C)CC4)c3c2c1 (stereo unspecified)	5%
N#CCCN(CC(=O)O)S(=O)(=O)c1ccccc1	5%
COc1ccc(N(CC(=O)N2CCc3ccccc3C2)S(=O)(=O)c2c(C)nn(C)c2C)cc1	0%
COC(=O)C1C2C=CC3(CN(C(C)c4ccc(OC)cc4)C(=O)C13)O2 (stereo unspecified)	11%
O=C(Nc1ccc(Nc2ccccc2)cc1)N1CCOCC1	7%
Cc1nc2cnc(N3CCN(C)CC3)nc2n(Cc2ccc(F)cc2)c1=O	25µM*
CC1(c2ccc(OC(F)F)cc2)NC(=O)N(CC(=O)NC2CCCCC2)C1=O (stereo unspecified)	-1%
Cc1cc(NC(=O)c2ccco2)ncc1NC(=O)Cc1ccccc1	4%
Cc1ccc(CNC(=O)CNS(=O)(=O)c2cccc3nsnc23)cc1	-1%
CNC(=O)N(O)C1N(C)C(=O)N(Cc2ccccc2)C1(C)C (stereo unspecified)	1%
COCCn1c(=O)c(-c2cccc(Cl)c2)nc2cncnc21	?
CC1CCC2C(=O)N3C(CCC(C)[C@@H]3c3ccc(-c4ccco4)cc3)C(=O)N2C1c1cccc(N2CCCC2=O)c1 (stereo partly specified)	-2%[11.4 µM]
O=C(COn1nnc2ccc(Cl)cc21)NCc1ccccc1	17%
CC(NC(=O)c1cccc(N2CCCC2=O)c1)c1ccc2c(c1)OCCO2 (stereo unspecified)	-1%
CCCC(=O)Nc1ccc2nc(SCC(=O)Nc3nccs3)sc2c1	-12%
O=C(NCc1ccco1)C1CCN(c2nnc(-n3cccc3)s2)CC1	-2%
Cn1c(=O)c2cc(S(=O)(=O)Nc3cccc(F)c3)ccc2n(C)c1=O	-2%
CCS(=O)(=O)n1nc(-c2ccc(Cl)cc2)nc1N	5%
CCn1c(COc2ccc3c(c2)OCO3)nnc1SCC(=O)c1ccccc1	3%
COc1ccc(CC(=O)NCc2nnc(SCCOc3ccccc3)n2C)cc1	7%
c1ccc2c(-n3cnnn3)cccc2c1	-2%
COc1ccc(NC(=O)c2cc(-c3cccs3)on2)cc1OC	25µM*
O=C(O)C1CCCCC1C(=O)Nc1cccc(C(=O)N2CCCCC2)c1 (stereo unspecified)	9%
Cc1ccc(S(=O)(=O)Nc2ccc3oc(=O)sc3c2)c(C)c1	?
COc1ccc(Cn2c(=O)[nH]c3cc(C(=O)NCCCN4CCCCC4)ccc3c2=O)cc1	32µM*
CCN1C(=O)[C@H]2[C@H]3[C@H](O)[C@H](O)C/C(=N/O[C@@H](C)c4cn([C@H]5COC[C@H]5O)nn4)[C@@H]3CC[C@@H]2C1=O	-3%[11.4 µM]
CCc1c(C)nc(SCC(=O)Nc2cccc(Br)c2)[nH]c1=O	1%
CCOc1ccc(CCNC(=O)C2CCN(c3nn4c(=O)cc(C)nc4s3)CC2)cc1OCC	-3%
O=C1CCC(C(=O)NCCCn2ccnc2)N1 (stereo unspecified)	8%
Cc1cc(=O)[nH]c(SCC(=O)N2c3ccccc3CC2C)n1 (stereo unspecified)	0%
Cn1c(=O)c(C(=O)c2ccccc2)nc2ccccc21	-3%
CC(C)OP(=O)(c1ccc(N(C)C)cc1)C(O)c1ccncc1 (stereo unspecified)	-8%
Cc1csc2nc(CSc3nncn3-c3ccccc3)c(Br)n12	11%
O=C(O)CCCCNS(=O)(=O)c1ccc(Cl)c(C(F)(F)F)c1	5%
CCOC(=O)Cc1csc(SCC(=O)Nc2sc3c(c2C(N)=O)CCC3)n1	?
CCC1CCc2sc(C(=O)O)cc2C1 (stereo unspecified)	-13%

Of the compounds above, these contain bromine.
compound	HSD17B inhib
CCc1c(C)nc(SCC(=O)Nc2cccc(Br)c2)[nH]c1=O	1%
Cc1csc2nc(CSc3nncn3-c3ccccc3)c(Br)n12	11%

(more compounds)
compound	HSD17B inhib
Cn1c(Cc2csc(N)n2)nnc1SCC(=O)NCc1ccccc1	7%
CCOC(=O)c1c(-c2ccc(C)o2)csc1NC(=O)COC(=O)c1cccs1	-25%
C=CCOc1ccc(/C(O)=C2\C(=O)C(=O)N(CCCOC)C2c2ccncc2)cc1 (stereo unspecified)	-8%
COCCCN1C(=O)c2ccccc2C1C(=O)NC1CCCCCC1 (stereo unspecified)	8%
Cc1nnc(SCC(=O)N2CCc3ccccc32)n1-c1ccccc1	4%
CC(C)(C)C(=O)N=C1SC2CS(=O)(=O)CC2N1c1ccc2c(c1)OCO2 (stereo unspecified)	-2%
CCn1c(NCc2ccco2)nc2c1c(=O)n(C)c(=O)n2C	3%
COc1ccc(OC)c(C(c2nnnn2C2CCCC2)N2CCN(c3ccccc3F)CC2)c1 (stereo unspecified)	-1%
O=C(NCC1CCCO1)C1CCN(S(=O)(=O)N2CCCC2)CC1 (stereo unspecified)	-4%
CCCCN(C)CCCNC(=O)CCn1nc(-c2ccccc2)ccc1=O	3%
O=c1[nH]nc2c3ccccc3cnn12	7%
Cc1ccc(C)c(N2CCN(CCCNC(=O)Cn3cc4c(n3)CCC(C)C4)CC2)c1 (stereo unspecified)	1%
Cc1ccc(C(=O)N2CCN(C(=O)CN3CCCC3)C2)cc1	10%
COc1ccc2c(OC)c3ccoc3nc2c1OC	13µM*
CCOC(=O)c1c(C)oc2cc(Br)c(OC)cc12	6%
Cc1nnc(SCC(=O)Nc2ncc(Cc3ccc(F)cc3)s2)n1N	1%
O=C1C(=O)c2ccccc2C(O)=C1C(CCc1ccccc1)C1=C(O)c2ccccc2C(=O)C1=O	?
COc1ccc(Nc2nc(N)nc(CN3CCc4ccccc4C3)n2)cc1	-8%
Cc1cccc(Cc2c(C)nc3nc(SCC(=O)NCc4ccco4)nn3c2C)c1	?
CCOC(=O)C1CCCN(C(=O)c2cn(C)c(=O)c3cc(OC)c(OC)cc23)C1 (stereo unspecified)	-15%
CCOC(=O)N1CCC(NC(=O)c2cnn3ccccc23)CC1	32µM*
CCCOc1cccc(C(=O)N(Cc2cccs2)C2CCS(=O)(=O)C2)c1 (stereo unspecified)	-11%
COc1ccc(OC)c(NC(=O)CS(=O)(=O)c2ccccc2)c1	5%
O=C(NCc1ccc2c(c1)OCO2)C1CC(=O)N(CCc2ccccc2)C1 (stereo unspecified)	8%
O=C(OCC(=O)c1cccs1)c1ccc(NC(=O)c2ccco2)cc1	7%
COc1ccc(-n2c(Cc3cc(=O)[nH]c(=O)[nH]3)nnc2SCC(=O)N2CCC(C)CC2)cc1	5%

4 entries from above, as labelled records:
CCn1c(NCc2ccco2)nc2c1c(=O)n(C)c(=O)n2C
- HSD17B inhib = 3%
COc1ccc(OC)c(C(c2nnnn2C2CCCC2)N2CCN(c3ccccc3F)CC2)c1 (stereo unspecified)
- HSD17B inhib = -1%
O=C(NCC1CCCO1)C1CCN(S(=O)(=O)N2CCCC2)CC1 (stereo unspecified)
- HSD17B inhib = -4%
CCCCN(C)CCCNC(=O)CCn1nc(-c2ccccc2)ccc1=O
- HSD17B inhib = 3%

Not all compounds are listed, so the mix of outcomes need not match the whole.
